Screening results as filed in PubChem.
MgrA DNA FP: alters Staphylococcus aureus MgrA binding to DNA. fluorescence polarization. inhibition, %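 (about 10 µg/mL by stock and volumes)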. 84,000 compounds, 0.13% hits;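 active means above 50% in either of two replicates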;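 further: 0% = protein plus DNA without compound and 100% = DNA alone without protein; higher means less MgrA bound to DNA so lower polarization; one replicate is shown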
S aureus helic: blocks Staphylococcus aureus DNA helicase | inhibition, %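 (tested at about 80 µM)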 | 120,000 compounds, 0.05% hits | purified S. aureus helicase, fluorescence unwinding assay; about half of the hits fall short of the stated cut;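 active means both duplicates at 50% or more, or one of them with a favoured structure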;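 further: 0% = mean of negative control wells and 100% = mean of positive control wells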
* hit, by the source's call; nt = not tested or not shown.

SMILES	MgrA DNA FP	S aureus helic
CCOC(=O)N1CCC(NS(=O)(=O)c2ccc3oc(=O)c4ncn(CC)c4c3c2)CC1	0.2	-11.0
CCOC(=O)C1CCC(CNCc2ccc(OC)cc2)CC1 (stereo not given)	0.1	9.0
C=C(C)c1cccc(C(C)(C)NC(=O)Nc2ccc3[nH]c(=O)[nH]c3c2)c1	nt	6.0
c1ccn2cc(-c3ccc4c(c3)OCCO4)cc2c1	nt	-4.0
CCc1ccc(NC(=O)COC(=O)CN2C(=O)COc3ccccc32)cc1	nt	5.0
CCOC(=O)c1[nH]c(C)c(CN(C2CCCCC2)S(C)(=O)=O)c1C	nt	11.0
COc1ccc(-n2nnc3c(SCC(=O)NCC4CCCO4)ncnc32)cc1 (stereo not given)	nt	6.0
CCOC(=O)c1cnc(-c2ccccc2)nc1Nc1ccc(C)cc1	17.8	5.0
O=C(CC(NCCC1=CCCCC1)C(=O)O)Nc1ccccc1Cl (stereo not given)	nt	8.0
COC(=O)/C(=C(/O)CSc1nnc(COc2ccccc2Cl)n1C)c1nc2ccccc2[nH]1	nt	16.0
Cc1ccc(C(=O)NC(C)(C)C)cc1	nt	28.0
CN1CCN(C(=O)Oc2ccccc2)CC1	1.8	nt
NC(=O)NCc1ccc(C(=O)O)cc1	nt	-11.0
Cc1ccc(-n2c(=O)cc(N3CCCCCC3)[nH]c2=O)cc1	nt	8.0
COc1cc(NC(=O)c2cc3n(n2)C(C(F)(F)F)CC(c2ccc(Cl)cc2)N3)cc(OC)c1OC (stereo not given)	4.0	nt
CCCC(=O)Nc1cc(C(=O)O)ccc1S(=O)(=O)c1ccc(Cl)cc1	-2.5	5.0
C=CCNC(=O)c1cc(-c2ccccn2)nc2ccccc12	nt	0.0
Cc1cc(SCc2ccccn2)nc(=O)[nH]1	nt	14.0
Cc1c(C(=O)NCc2cccnc2)oc2ccc3c(c12)C(O)CC1(CCCCC1)O3 (stereo not given)	nt	17.0
Clc1ccc(CSCc2nc3ccccc3[nH]2)cc1	-0.3	11.0
CCc1sc(-c2nnc(CN3CCN(S(=O)(=O)c4ccc5c(c4)CCC5)CC3)o2)cc1C	nt	9.0
CC(C)OP(C)(=O)CN1CCN(CP(C)(=O)OC(C)C)CC1 (stereo not given)	-2.8	4.0
CCOC(=O)Cc1c(C)nc2c(-c3ccccc3)cnn2c1C	-1.0	16.0
CCOC(=O)c1sc(N(Cc2ccccc2)C(=O)COC(=O)c2cccn2C)nc1C	nt	-9.0
Cc1ccc(OS(=O)(=O)c2ccc(Cl)cc2)c([N+](=O)[O-])n1	-0.4	nt
COc1ccc(CNCc2ccncc2)cc1	-0.8	-3.0
O=C(O)/C=C/c1cccc(N=NN2CCCCC2)c1	9.9	0.0
Cc1ccc(C)c(N2N=C(C(=O)N3CCN(c4ccccc4F)CC3)CCC2=O)c1	nt	-13.0
COc1cccc(NC(=O)N2CCC(O)(c3ccc4c(c3)OCO4)CC2)c1	1.2	-8.0
NC(=S)COc1ccccc1	2.7	nt
CCOC(=O)N1CCN(CC(O)c2ccc3c(c2)CCN3C(C)=O)CC1 (stereo not given)	-0.9	19.0
CCN(CC)c1ccc(/C=C2\N=C(SC)SC2=O)cc1	nt	-84.0
CC1(c2ccccc2)CC(n2c3ccccc3c3ccccc32)=NC(SCC(=O)O)=N1 (stereo not given)	0.4	6.0
Cc1sc2ncnc(SCc3ccco3)c2c1C	nt	-10.0
CC(C)C(NC(=O)C1CCCCC1)C(=O)NC1CCCC(C)C1C (stereo not given)	nt	11.0
CC(C)NC(=O)CCCn1c(=O)c2cccn2c2ccccc21	-0.1	2.0
CCOc1ccc(-n2c(SCC(=O)NCc3ccco3)nc3c(c2=O)SCC3)cc1	0.1	12.0
O=C(Nc1ccc2nc3n(c(=O)c2c1)CCCCC3)c1ccncc1	nt	6.0
COc1cc2c(C(=O)NCCCN3CCN(C)CC3)cn(CC(C)C)c(=O)c2cc1OC	1.9	10.0
COC(=O)c1ccc(N2C(=O)/C(=C\c3cccnc3)SC2=S)cc1	nt	12.0

Looked up by compound from the list above:
SMILES	MgrA DNA FP	S aureus helic
COC(=O)c1ccc(N2C(=O)/C(=C\c3cccnc3)SC2=S)cc1	nt	12.0
O=C(O)/C=C/c1cccc(N=NN2CCCCC2)c1	9.9	0.0
CCOC(=O)Cc1c(C)nc2c(-c3ccccc3)cnn2c1C	-1.0	16.0

Next records follow:
SMILES	MgrA DNA FP	S aureus helic
OCn1nnn(-c2ccccc2)c1=S	nt	-55.0
CC(=O)Nc1ccc2c(c1)CN(Cc1ccc(Cl)cc1)CO2	1.0	7.0
CC(C#N)OC(=O)CSc1nnc(-c2ccccc2F)n1-c1ccccc1 (stereo not given)	nt	-8.0
COC1CC(O[C@H]2[C@H](C)[C@@H](OC3OC(C)CC(N(C)C)C3O)[C@@H](C)C[C@]3(CO3)C(=O)[C@H](C)[C@@H](O)[C@@H](C)[C@@H](C)OC(=O)[C@@H]2C)OC(C)C1O (stereo not given in full)	-1.2	nt
COCC(=O)Nc1cc(Sc2ccccc2)ccc1N=C(NC(C)=O)NC(C)=O	-0.8	14.0
Cc1ccc(C(=O)N(C)S(=O)(=O)c2ccc(C)cc2)cc1	1.8	-9.0
CCCCNC(=O)C1CCCN(S(C)(=O)=O)C1 (stereo not given)	nt	6.0
Cc1ccc(NC(=O)CSc2nc3ncnc(N)c3[nH]2)c(C)c1	-1.1	21.0
Cc1cccc(NC(=O)N2CCC(C)CC2)c1C	2.1	-9.0
O=C(O)c1cccc(NCC2SC(=S)NC2=O)c1 (stereo not given)	nt	12.0
C1=CCC(CNCCCN2CCOCC2)CC1 (stereo not given)	1.1	17.0
CCn1c2ccccc2c2cc(CN3CCC(N4CCCCC4)CC3)ccc21	-2.6	4.0
CCOc1ccc(CCN2CN(CC)CNC2=S)cc1OCC	nt	-23.0
Nn1c(SCC(=O)NC2CCCC2)nnc1-c1ccc(Cl)cc1Cl	nt	3.0
O=C(/C=C/c1cccc(C(F)(F)F)c1)OCC(=O)c1ccc(Cl)s1	-2.2	-17.0
O=S(=O)(Oc1cncc(Cl)c1)c1cc(Cl)cc(Cl)c1	-0.8	nt
CCOC(=O)Cn1c(=O)c(-c2ccccc2N)nc2ccccc21	nt	-9.0
O=c1c2ccccc2nnn1-c1ccc(Br)cc1	nt	13.0
CS(=O)(=O)/C(C#N)=C/Nc1ncccn1	nt	9.0
Nc1nnc(SCC(=O)N2CCCCC2)n1CC(=O)N1CCCCC1	0.8	-15.0

Rewritten in markdown: entries from further up.
| smiles | MgrA DNA FP | S aureus helic |
| --- | --- | --- |
| C1=CCC(CNCCCN2CCOCC2)CC1 (stereo not given) | 1.1 | 17.0 |
| CC(C#N)OC(=O)CSc1nnc(-c2ccccc2F)n1-c1ccccc1 (stereo not given) | nt | -8.0 |
| Cc1cccc(NC(=O)N2CCC(C)CC2)c1C | 2.1 | -9.0 |
| O=c1c2ccccc2nnn1-c1ccc(Br)cc1 | nt | 13.0 |

Later entries.
SMILES	MgrA DNA FP	S aureus helic
Cc1ccc(C(=O)NCC(C)(C)N2CCOCC2)s1	nt	6.0
COc1ccc(C(N)c2nccc3cc(OC)c(OC)cc23)cc1OC (stereo not given)	-1.2	7.0
CN1CCN(C(=O)c2ccc(-c3ccc(Br)cc3)o2)CC1	nt	-25.0
COc1ccc(C(=O)N2C3C=CC(C3)C2(C(F)(F)F)C(F)(F)F)cc1 (stereo not given)	nt	37.0
Cc1ccc(-n2c(C)c3c(C)nnc(C)c3c2C)cc1C	1.6	-3.0
COc1cc2c(C#N)c(N3CCN(S(=O)(=O)c4ccc5c(c4)OCCO5)CC3)nc(N)c2c(N)n1	nt	4.0
FC(F)(F)c1cc(-c2noc(C3CCc4ccccc4O3)n2)cc(C(F)(F)F)c1 (stereo not given)	0.5	nt
Cc1ccc(NNC(=S)NC(=O)C2CC2)c(C)c1	nt	4.0
Cc1nc(C)c(C(=O)Nc2nnc(C3CCCO3)s2)s1 (stereo not given)	nt	14.0
COc1ccc(COC(=O)C2=C(C)NC(=O)NC2c2ccc(Cl)cc2Cl)cc1 (stereo not given)	-0.9	nt
CC1CCCCC1NC(=O)CSc1nnc(-c2cccs2)n1-c1ccccc1 (stereo not given)	nt	8.0
CC(=O)OC(C)C1CCC2C3CC[C@H]4CC(=O)CCC4(C)C3CCC12C (stereo not given in full)	-2.8	nt
Cn1/c(=N/N=C2\CCc3ccccc32)sc2ccccc21	nt	-9.0
CCCC(=O)N1CCCC(c2nc(-c3ccc(OC)cc3)no2)C1 (stereo not given)	-2.2	18.0
Cc1cccc(C(=O)NCC(=O)OCc2cccc(C(F)(F)F)c2)c1	-0.8	-14.0
O=C(CCCN1C(=O)CSc2ncccc21)NCc1ccc(Cl)cc1	nt	8.0
CCCNC(=O)c1ccc2c(c1)N(Cc1ccccc1)C(=O)CS2=O (stereo not given)	nt	27.0
O=c1cc(C(F)(F)F)cc[nH]1	3.5	nt
COc1ccc2c(-c3ccccc3)cc(=O)oc2c1	nt	13.0
Cc1c(C(=O)N2CCC(C)CC2)oc2ccc(S(=O)(=O)N3CCCCC3)cc12	nt	3.0
CSc1ncc(Cl)c(C(=O)NCCc2ccc(S(N)(=O)=O)cc2)n1	1.5	-5.0
Oc1ccccc1C1=NC(c2ccc(F)cc2)NC(c2cccnc2)C1 (stereo not given)	0.8	7.0
CCCCN(Cc1ccco1)C(=O)c1cc2c(s1)-c1ccccc1OC2	-1.3	1.0
O=C(CSc1ccccn1)N1CCCCC1	nt	-7.0
CCOC(=O)c1ccc(NC(=O)c2oc3c(c2C)-c2nn(Cc4ccc(C)cc4)cc2CC3)cc1	-0.9	-3.0
Cc1nc(C(F)(F)F)ccc1C(=O)O	-3.5	nt
COc1ccc(-c2nc3ccccc3o2)cc1N	-0.8	2.0
O=C(Nn1c(-c2cccs2)nc2ccccc2c1=O)c1cc2ccccc2oc1=O	1.5	nt
CCOC(=O)CSC1=NC(=O)/C(=C\c2ccc(Cl)cc2)S1	-3.3	-3.0
O=C(NC1CCSc2ccccc21)C1=CC=CN2CCS(=O)(=O)N=C12 (stereo not given)	nt	-11.0
Cc1cc(C)c(S(=O)(=O)N(C)C)c(C)c1	nt	23.0
COc1ccc(C(=O)Nc2sccc2C(N)=O)c(OC)c1	nt	7.0
COc1ccc2c(ccc[n+]2[O-])c1	-0.3	4.0
Cc1cccc(NC(=O)Cn2cnc3c(oc4ccccc43)c2=O)c1	-0.8	3.0
Cc1c(-c2ccccc2)sc(N)c1C(=O)N1CCCCC1	nt	-4.0
CCCCn1c(SCC(N)=O)nnc1-c1ccco1	4.5	6.0
CCOC(=O)CSc1nc(C)c2cc(OC)ccc2n1	nt	-11.0
CN(C(=O)C(C)(C)C)c1ccc(OCC(=O)N2CCCc3ccccc32)cc1	-4.0	-14.0
Cn1c(=O)[nH]c(=O)c2c1ncn2CCCNC1=NCCCC1	-2.2	2.0
O=C(c1ccc2nccnc2c1)N1CCc2ccccc2C1	5.5	11.0
O=c1oc2c3c4c(cc2cc1-c1nnc(Nc2ccccc2)s1)CCCN4CCC3	8.2	nt
Cc1nn(-c2ccccc2)c(N)c1N=Nc1ccccc1OC(F)F	nt	4.0
COC(=O)c1cc(OC)c(OC)cc1NC=C(C#N)C#N	nt	-52.0
COC(=O)c1ccccc1NC(=O)c1noc2c1CCCC2	nt	-25.0
CC(C)(C)n1nc2c(c1NC(=O)/C=C\c1ccccc1)CS(=O)C2 (stereo not given)	nt	1.0
CCOC(=O)N1CCC(N(CCOC)C(=O)Nc2ccc(CC)cc2)CC1	nt	-12.0
Cc1ccc2nc(COC(=O)CCCN3C(=O)c4ccccc4C3=O)cc(=O)n2c1	nt	-3.0
Cc1ccc(OS(=O)(=O)c2cccc(C(F)(F)F)c2)c(Br)c1	-1.4	nt
CCCC1NC(=O)N(CN(C)Cc2ccc(C)cc2)C1=O (stereo not given)	nt	7.0
CC(C)(C)c1ccccc1OCCCSC#N	4.7	14.0
Cc1noc(C(F)(F)F)c1-c1nc(-c2ccc(Cl)cc2)no1	0.9	nt
CCN(CC)C(=O)CSc1nnc(SCc2ccccc2)s1	nt	-17.0
CN(C)C(=O)c1cn(CCC#N)nc1-c1cccc2ccccc12	-3.4	-3.0
CCC1Sc2cc(S(=O)(=O)N3CCCc4ccccc43)ccc2NC1=O (stereo not given)	-1.2	14.0
N#Cc1ccc(Cn2c(CS(=O)(=O)c3ccccc3)nc3ccccc32)cc1	nt	9.0
Cc1ccc(C)c(NC(=O)CSc2nnc(CNC(=O)c3ccco3)n2-c2ccc(F)cc2)c1	nt	5.0
CCc1noc(C)c1C(=O)NC(c1ccccc1)c1ccc(Cl)cc1 (stereo not given)	nt	4.0
Cc1ccccc1NC(=S)N(CCCN1CCOCC1)Cc1cccnc1	nt	-11.0
CC(C)c1ccc(S(=O)(=O)c2cnc(SCC(=O)Nc3ccccc3)[nH]c2=O)cc1	2.1	3.0
Cc1ccc(CN2CCC(CNc3ncnc4onc(C(=O)O)c34)C2)cc1 (stereo not given)	nt	-26.0
Going on with the list:
SMILES	MgrA DNA FP	S aureus helic
Cc1c(-c2ccnn2C(=O)Nc2ccccc2)cnn1-c1ccccc1	-0.9	nt
CN1CCN(NC(=O)CC(C)(C)C)CC1	2.1	-1.0
CCOc1ccccc1C=Nc1ccc(OC(F)(F)F)cc1	-1.0	2.0
COc1ccc(CCN2C(=O)C3CC=C(C)CC3C2=O)cc1OC (stereo not given)	2.1	4.0
NC(=O)c1ccc(NC(=O)CC23CC4CC(CC(Br)(C4)C2)C3)cc1	-1.4	-24.0
Cc1ccc2[nH]c(C)cc(=S)c2c1	2.6	1.0
CC(C)(C)c1nnc(SCC(=O)Nc2ccc(Br)cc2)n1N	nt	-4.0
CNC(=S)NC(C)C1CC2CCC1C2 (stereo not given)	nt	-3.0
COc1ccc(N2CC(C(=O)O)CC2=O)cc1 (stereo not given)	-2.8	nt
CCCCC(Sc1nc(N)c(NC(=O)c2ccc(OC)cc2)c(=O)[nH]1)C(=O)O (stereo not given)	nt	-16.0

An excerpt; rates above refer to the full screens.
